GLA spleen mod – inhibits or activates alpha-galactosidase in human spleen homogenate; P06280; human spleen homogenate, 4MU-alpha-Gal fluorescence, 40 min; 240,000 compounds, 0.008% hits; Potency, µM (series often up to 80 µM), without a hit: at the top dose activity change, negative = inhibition, usual class: inhibitors;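 note: 0% = enzyme with vehicle and -100% = no enzyme basal signal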
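Spleen homogenate 1 ug + cpd (titration) + 4-MU-alpha-D-galactopyranoside 1 mM; 37C 40 min; 50 mM citrate/phosphate pH 5.0, 0.01% Tween-20; stop pH 10; fluorescence 365/440; AC50 via Hill.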
TRb-SRC2 inh – TRbeta-SRC2 interaction inhibition. 280,000 compounds, 0.065% hits. P10828. Potency, µM (doses to about 106 µM), for the others: top-dose activity change, negative = inhibition, actives largely listed as inhibitors. TRbeta-SRC2 peptide binding, fluorescence polarization; receptor liganded with 1 µM T3;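 note: plate controls were bound peptide for no effect and peptide without receptor for full effect; nearly all actives have a fitted effect of over 50% in size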
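Human TRb LBD (0.6 uM) plus Texas Red-labeled SRC2 peptide (20 nM), 1uM T3, 5% DMSO, 5 hr at ambient temperature. Decreased polarization (555/632 nm) flags inhibition; data normalized to free and bound peptide controls.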
Tau fluor cs – counter-screen for tau fibril formation inhibitors; AID 1463; tau K18 P301L Alexa594 fluorescence, heparin fibrillization; Potency, µM (top dose mostly 57.7 µM), without a hit: top-dose activity change, negative = decrease; 280,000 compounds, 0.93% hits; note: nearly all actives have a fitted effect of over 55% in size
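Human tau K18 P301L (15 uM unlabeled, 0.24 uM Alexa 594-labeled) in 100 mM sodium acetate pH 7 with 20 uM heparin, 6 hr at 37 C. ThT 30 uM added, 1 hr ambient; Alexa 594 FP and total fluorescence read at 555/632 nm.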
TexasRed fluor – alters Texas Red total fluorescence, flagging assay interference; 280,000 compounds, 0.29% hits; AID 1479; Potency, µM (highest dose often 106 µM), inactives show at the top dose fluorescence change, negative = quenching; TRb/SRC2 Texas Red total fluorescence interference; active = well fitted curve in either direction with a large enough effect; inconclusive = small, poorly fitted or top-dose-only effect
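Human TRb ligand-binding domain at 0.6 uM with 20 nM Texas Red SRC2 peptide in Tris buffer containing 1 uM T3 and 5% DMSO, incubated with compound 5 h at ambient temperature. Total fluorescence (555/632 nm) calculated as parallel + 2 × perpendicular.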
Tau fibril FP – blocks human tau fibril formation measured by polarization | P10636 | K18 P301L tau heparin fibrillization, Alexa594 FP, 6 h | Potency, µM (top dose mostly 57.7 µM), for inactives: at the highest dose activity, negative = inhibition, usual class: inhibitors | 280,000 compounds, 0.39% hits | AID 1468; note: nearly all actives have a fitted effect of over 55% in size
Target sequence (P10636 561-689 P618L limits assumed): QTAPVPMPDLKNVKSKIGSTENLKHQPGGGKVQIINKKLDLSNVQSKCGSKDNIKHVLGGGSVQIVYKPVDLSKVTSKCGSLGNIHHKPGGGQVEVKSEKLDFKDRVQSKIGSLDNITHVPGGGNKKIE
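Steps: dispense K18 P301L tau (15 uM plus 0.24 uM Alexa 594 tracer, final) in pH 7 sodium acetate; add compound; add heparin (20 uM final); incubate 6 hr, 37 C; add ThT (30 uM final); after 1 hr ambient, read FP.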
Tau ThT inhib – inhibitors of human tau fibril formation, thioflavin T binding; AID 1460; 270,000 compounds, 2.1% hits; recombinant tau K18 P301L (four-repeat tau fragment), heparin-induced fibrillization, ThT fluorescence; Potency, µM (series often up to 57.4 µM), for inactives: at the top dose activity, negative = inhibition, hits mostly inhibitors; note: nearly all actives have a fitted effect of over 55% in size
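Heparin-induced (20 uM) aggregation of recombinant human K18 P301L tau, 15 uM unlabeled with 0.24 uM labeled, pH 7 acetate buffer, 6 hr at 37 C with compound. Fibrils quantified by 30 uM ThT fluorescence after 1 hr ambient incubation.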
L3MBTL1 block – blocks human L3MBTL1. Potency, µM (doses to about 57.1 µM), inactives show top-dose activity, negative = inhibition, hits mostly inhibitors. Q9Y468. AlphaScreen L3MBTL1–H3K9me1 peptide binding. 230,000 compounds, 0.66% hits; note: nearly all actives have a fitted effect of over 60% in size
Target sequence (Q9Y468 whole entry, looked up): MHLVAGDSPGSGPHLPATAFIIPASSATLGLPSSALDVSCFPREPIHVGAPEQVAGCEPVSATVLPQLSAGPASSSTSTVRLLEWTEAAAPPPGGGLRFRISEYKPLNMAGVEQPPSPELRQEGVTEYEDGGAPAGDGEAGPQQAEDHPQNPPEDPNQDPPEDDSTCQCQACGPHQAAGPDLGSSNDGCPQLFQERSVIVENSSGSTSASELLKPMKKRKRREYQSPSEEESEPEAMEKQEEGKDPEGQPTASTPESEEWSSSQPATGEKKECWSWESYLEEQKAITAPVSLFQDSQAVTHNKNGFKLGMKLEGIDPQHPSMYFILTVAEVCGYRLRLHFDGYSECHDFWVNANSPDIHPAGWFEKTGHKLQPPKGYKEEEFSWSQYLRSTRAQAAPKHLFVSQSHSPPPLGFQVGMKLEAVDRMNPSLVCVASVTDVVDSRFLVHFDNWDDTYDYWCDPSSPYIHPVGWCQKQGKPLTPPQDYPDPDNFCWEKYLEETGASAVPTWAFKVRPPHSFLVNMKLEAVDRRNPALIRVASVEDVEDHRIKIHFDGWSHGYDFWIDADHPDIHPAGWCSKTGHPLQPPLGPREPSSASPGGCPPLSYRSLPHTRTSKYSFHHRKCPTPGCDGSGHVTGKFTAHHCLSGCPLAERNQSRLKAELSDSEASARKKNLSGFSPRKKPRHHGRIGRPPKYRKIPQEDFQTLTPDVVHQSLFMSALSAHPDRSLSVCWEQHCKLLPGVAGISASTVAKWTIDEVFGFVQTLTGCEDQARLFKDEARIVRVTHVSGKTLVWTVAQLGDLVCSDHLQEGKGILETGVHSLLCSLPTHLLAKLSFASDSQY
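First, the protein-peptide complex forms for 30 min at room temperature (L3MBTL1 50 nM, biotinylated H3K9me1 peptide 75 nM). Next, compounds are pin-transferred and incubated 30 min. Finally, AlphaScreen beads are added and read after 30 min.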
* hit, by the source's call; ? = inconclusive; . = not tested or not shown; & = joins results of further samples; [ ] = remark or other dose. Unless noted, calls come from the whole dose curve; as a rule, active = well fitted curve in the direction sought with a large enough effect; inconclusive = small, poorly fitted or top-dose-only effect, or another doubt; inactive = no such curve, though single readings can be large; an effect the other way counts as inactive or inconclusive. Unless noted, % is set by controls: 0 for no effect and ±100 for the full control effect; potency is the fitted concentration of half-maximal effect. These rows are one share of the data; rates above refer to the full screens.

SMILES	GLA spleen mod	TRb-SRC2 inh	Tau fluor cs	TexasRed fluor	Tau fibril FP	Tau ThT inhib	L3MBTL1 block
CO/N=C1\CCn2c1c(C)c1ccccc12	-6.9%	-3.7%	-15.9%	-1.1%	1.0%	?	-8.1%
COc1cc2c(C(=O)N3CCN(C)CC3)c(C)oc2cc1Br	5.8%	-8.2%	2.5%	-2.9%	1.7%	-10.1%	.
CNC(=O)c1cc(C(=O)c2ccc(C(F)(F)F)cc2F)c[nH]1	4.1%	-0.3%	2.5%	0.4%	0.3%	0.6%	8.2%
O=C(CCc1nnc(-c2ccc(-c3ccccc3)cc2)o1)NCCc1ccccn1	-1.1%	0.2%	-5.1%	-3.6%	?	4.8%	-11.7%
CCc1nc2ccccc2c(C(=O)NCc2ccccc2)c1C	-2.6%	-3.7%[53 µM]	-1.2%	1.2%[53 µM]	-0.8%	5.2%	56.7%[activator]
CC(=C/C(=O)O)/C=C/c1ccc(Cl)o1	0.1%	1.0%	-12.6%	-1.4%	?	?	10µM*
CCCOc1cccc(C(=O)N(Cc2ccc(OC)c(OC)c2)C2CCS(=O)(=O)C2)c1 (centres undefined)	-6.0%	-0.4%	-5.4%	0.9%	-2.1%	-7.9%	.
Cc1cccc(NC2=NC(C)(C)N=C(N)N2)c1C	2.7%	-0.8%	-1.8%	2.3%	-3.4%	-2.5%	3.3%
Cc1cc(NC(=O)CSc2c(C)[nH]c3ccccc23)no1	3.5%	-3.0%	7.6%	-3.4%	0.5%	0.6%	-1.5%
COCCn1c(=S)[nH]c2cc(C(=O)N3CCC(C(N)=O)(N4CCCCC4)CC3)ccc2c1=O	-5.5%	-2.3%	-4.9%	-3.5%	-8.1%	-14.1%	-2.9%
Cn1c(Cc2ccccc2)nnc1SCc1cc(=O)n2ccsc2n1	1.3%	-1.9%	-1.5%	-1.7%	4.3%	-0.8%	?
O=C(CCCc1ccccc1)N1CCc2ccccc21	2.5%	-8.6%	-19.9%	-1.1%	5.1%	?	.
CC(=O)N1CCN(S(=O)(=O)c2cccc(C(=O)Nc3nccs3)c2)CC1	6.3%	3.0%	5.6%	4.2%	-4.7%	2.4%	3.6%
CCOc1cc(C(N)=O)cc(Br)c1OC	3.4%	-15.0%	6.6%	1.3%	6.1%	8.3%	-1.9%
Cc1ccc(C)c(NC2=C(Cl)C(=O)OC2OC(C)C)c1 (centres undefined)	8.0%	2.6%	-8.3%	-1.6%	-2.4%	-2.7%	-11.4%
O=C(NCCO)C1CCN(S(=O)(=O)c2ccc(F)cc2)CC1	1.6%	-16.5%	-1.6%	-1.2%	1.0%	-8.8%	2.9%
COc1ccc(CCNC(=O)c2ccc(N(C)S(=O)(=O)c3ccc(C)cc3)cc2)cc1OC	7.3%	4.1%	-10.1%	-1.6%	7.4%	-9.6%	-28.2%
Cc1cc(C)c2nc(SCC(=O)NC(=O)c3cccn3C)cc(C)c2c1	1.5%	-9.0%	-0.2%	-0.1%	-5.6%	-11.4%	.
CCOc1cc(C(=O)Nc2ccc3c(c2)OCO3)ccc1OC(F)F	-0.6%	7.9%	?	-4.9%	-0.8%	?	-0.1%
CC(C)(C)SCCNC(=O)c1ccc(NS(C)(=O)=O)cc1	3.1%	1.6%	-2.8%	-4.6%	1.5%	-6.7%	0.0%
Cc1cccc(C(=O)N2CC3(C)CC2CC(C)(C)C3)c1 (centres undefined)	-6.8%	3.1%	2.8%	2.6%	0.6%	-9.8%	8.6%
CCOC(=O)c1ccc(NC(=O)COc2ccc(-n3cnnn3)cc2)cc1	3.9%	-11.7%	-9.3%	-6.8%	-10.4%	-15.1%	?
O=C(CS(=O)c1cccc(C(F)(F)F)c1)Nc1ccccc1Cl (centres undefined)	-12.1%	0.0%	-4.4%	-4.6%	3.1%	2.8%	0.4%
COc1cccc(-c2cc(C(=O)NCCCn3ccnc3)no2)c1	-7.9%	0.5%	-4.4%	1.0%	-0.7%	-6.3%	.
CCOC(=O)CNC(=O)C1(c2ccccc2)CCCC1	8.3%	-6.1%	-2.7%	-0.8%	0.9%	1.5%	.
O=C(COC(=O)c1cncc(Br)c1)NC1CCCC1	1.3%	-2.4%	-1.7%	-1.6%	10.2%	-4.9%	18.2%
O=C(c1ccccc1)c1ccc(OCC(O)CN2CCCC2)cc1 (centres undefined)	-2.6%	8.1%[53 µM]	4.1%[2.34 µM]	5.2%[53 µM]	2.4%[2.34 µM]	-0.2%	-9.4%
CC(C)(C)NC(=O)/C=C/c1cccc(C(F)(F)F)c1	6.8%	4.6%	-8.3%	-1.1%	1.4%	-5.1%	9.7%
Cc1cccc(C(=O)n2cnnc2N)c1	-1.7%	3.2%	-15.8%	0.6%	1.8%	?	3.1%
O=C(c1ccco1)N1CCN(c2ccc(S(=O)(=O)N3CCCC3)cc2)CC1	-0.9%	4.4%	-8.0%	-1.6%	2.0%	-14.0%	14.0%
COc1ccccc1OCC(=O)Nc1cccc(N(C)S(C)(=O)=O)c1	7.0%	-1.4%	-6.4%	2.2%	3.4%	-9.7%	.
COc1ccc(C2CC(=O)CC(=O)C2n2cncn2)cc1 (centres undefined)	0.1%	-0.5%	-2.2%	-0.4%	-6.5%	-1.5%	8.0%
COc1ccccc1C(=O)Nc1c(C)cc(Br)cc1C	10.7%	0.9%	-8.1%	-3.3%	-9.6%	?	-1.0%[11.4 µM]
COc1ccc(-n2c(=O)[nH]c3cc(C(=O)NCCc4ccc(Cl)cc4)ccc3c2=O)cc1OC	5.9%	8.2%&-2.6%	-11.9%&-22.1%	1.2%&-2.7%	-5.9%&-12.2%	-11.7%&-22.6%	.
O=C(Cn1c(C(F)(F)F)nc2ccccc21)c1ccc(Br)cc1	-11.0%	-6.3%	-15.1%	0.3%	2.2%	-9.4%	3.7%
CN(C)c1ccc(NC(=S)NCC2CCCO2)cc1 (centres undefined)	-2.6%	7.3%	3.8%	1.1%	-1.4%	0.6%	-8.4%
Cc1nonc1NC(=O)OCCN1CCOC1=O	3.1%	6.2%	0.8%	0.8%	-4.5%	-0.3%	-0.8%
O=C(CC(c1ccccc1)c1cc(Br)ccc1O)NCc1ccco1 (centres undefined)	1.7%	-14.9%	-29.6%	-1.4%	1.4%	-7.1%	-10.7%[11.4 µM]
CC1CCCCN1Cc1nc2c(c(=O)n(C)c(=O)n2C)n1CCc1ccccc1 (centres undefined)	6.2%	10.8%	4.4%	0.9%	5.7%	3.4%	-2.7%[11.4 µM]
CCCCOC(=O)Oc1ccc2c(=O)c(Oc3cccc(C)c3)coc2c1	6.3%	10.3%	4.9%	4.8%	-0.5%	9.8%	49.2%[activator]
Cc1cc(C)nc(N/N=C/c2cccc(Cl)c2)n1	0.0%	2.3%	-2.6%	-1.4%	-10.0%	-10.0%	.
COCCNC(=O)C(c1cccs1)N(Cc1ccccc1)C(=O)Cn1nnc2ccccc21 (centres undefined)	-5.4%	-1.7%	1.6%	0.4%	7.9%	6.6%	.
N#Cc1ccc(-c2csc(NC(=O)C3CC3)n2)cc1	-0.2%	9.8%	1.8%	-0.5%	0.6%	-3.8%	1.2%
COc1cc(C(=O)Nc2nnc(C)s2)c([N+](=O)[O-])cc1OC	-9.5%	-4.5%	-7.1%	-2.0%	2.6%	-10.1%	14.6%
Cc1ccc(S(=O)(=O)N(C)CC(O)Cn2c3ccccc3c3ccccc32)cc1 (centres undefined)	2.7%	-8.6%	?	-1.7%	-9.6%	-7.1%	-2.0%
Cn1cnc([N+](=O)[O-])c1Oc1cccc2ccccc12	-14.9%	-2.5%	-21.9%	-3.1%	5.6%	?	4.0%
CCOc1cc(S(=O)(=O)Nc2ccccc2CC)ccc1Cl	1.9%	1.5%	-28.9%	-0.1%	7.4%	-13.4%	.
COc1cc(C)c(Cl)cc1S(=O)(=O)N(C)C	?	-24.8%	-3.8%	2.0%	0.8%	5.8%	-10.0%
COc1cc(NC(=O)Cn2c(=O)n(-c3cccc(C)c3)c(=O)c3c(C)c(C)sc32)cc(OC)c1	-0.4%	4.3%	4.6%	9.1%	-12.1%	17.9%	-10.7%
C=CCSc1ccsc1C(=O)O	6.5%	2.0%	-1.3%	3.3%	-13.7%	-8.9%	0.4%
COCCn1c(SCC(=O)Nc2sc(C)c(C)c2C#N)nnc1C(C)C	-0.5%	-8.0%	7.8%	0.1%	0.6%	-1.2%	-8.8%
COc1cc(C(=O)N2CCCN(c3nc4cc(C)ccc4cc3C#N)CC2)cc(OC)c1OC	-5.4%	3.3%	-11.3%	-3.6%	-4.4%	-13.0%	5.5%
CCN(CC)C(=O)Cn1ncc2c1-c1ccccc1OC2	-2.6%	5.6%	-1.7%	1.0%	3.2%	-5.7%	-1.3%
COc1cc2[nH]c(=S)n(CCN3CCCCC3C)c(=O)c2cc1OC (centres undefined)	-1.4%	2.1%	11.6%	0.1%	1.1%	6.7%	-7.2%[11.4 µM]
